Screening data as filed in PubChem BioAssay.
LASV entry inh: qHTS for Inhibitors of binding or entry into cells for Lassa Virus | Lassa virus pseudotype entry inhibition, cell reporter; control for the full effect not named in the record | Potency, µM (highest dose often 37.9 µM), for the others: at the top dose activity change, negative = inhibition, most hits filed as inhibitors | actives 1.2% (n = 300,000); active means well fitted inhibition curve with a large enough effect; inconclusive means small, poorly fitted or top-dose-only effect, or effect the other way; inactive means flat fitted curve, though single readings scatter; tested in HEK293 cells; also: % is scaled to controls: 0 for no effect and ±100 for the full control effect; nearly all actives have a fitted effect of over 50% in size; luciferase read-out
2A StopGo: High Throughput Screening for Foot and Mouth Disease Virus Antivirals; human cells with a luciferase reporter of 2A StopGo recoding; control for the full effect not named in the record; Potency, µM (doses to about 57.9 µM), without a hit: at the top dose signal change, negative = less light; actives 1.2% (n = 410,000); active = well fitted falling curve with a large enough effect; inconclusive = small, poorly fitted or top-dose-only effect; inactive = no such curve, though single readings can be large or run the other way; tested in HEK293T cells; also: % is scaled to controls: 0 for no effect and ±100 for the full control effect; nearly all actives have a fitted effect of over 45% in size; luciferase light after 4 h
SARS PLP yeast: qHTS of Yeast-based Assay for SARS-CoV PLP | Potency, µM (top dose mostly 32.9 µM), inactives show at the highest dose activity, positive = growth rescue | S. cerevisiae expressing SARS-CoV PLpro, growth rescue; control for the full effect not named in the record | AID 485353, 2010 | actives 0.19% (n = 330,000); active means well fitted rising curve with a large enough effect; inconclusive means small, poorly fitted or top-dose-only effect; inactive means no such curve, though single readings can be large or run the other way; also: 0% is about no effect; nearly all actives have a fitted effect of over 55% in size; growth read by luminescence after 48 h
Cruzain noTriton: qHTS Assay for Promiscuous and Specific Inhibitors of Cruzain (without detergent) | purified cruzain, Z-FR-AMC fluorescence, no detergent | AID 1476, 2009 | Potency, µM, for the others: max response, negative = inhibition, most hits filed as inhibitors | Cruzipain (Trypanosoma cruzi), P25779 | actives 2.3% (n = 200,000);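 also: plate controls were enzyme without inhibitor for no effect and buffer without enzyme for full effect; nearly all actives have a fitted effect of over 40% in size; top concentration of the series not given in the record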
Target sequence (P25779 123-467 limits assumed): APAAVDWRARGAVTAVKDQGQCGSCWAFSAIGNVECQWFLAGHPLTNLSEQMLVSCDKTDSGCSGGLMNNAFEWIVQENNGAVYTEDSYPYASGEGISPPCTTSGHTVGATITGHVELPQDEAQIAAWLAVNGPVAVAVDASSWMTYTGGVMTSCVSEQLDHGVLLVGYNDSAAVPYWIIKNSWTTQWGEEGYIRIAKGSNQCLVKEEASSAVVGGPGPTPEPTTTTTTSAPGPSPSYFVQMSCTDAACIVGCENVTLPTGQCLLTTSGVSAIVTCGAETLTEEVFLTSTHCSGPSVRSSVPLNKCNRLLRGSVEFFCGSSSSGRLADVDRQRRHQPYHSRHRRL
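Detergent-free condition (0.00005% Triton X-100) in acetate buffer pH 5.5 with DTT. 1.5 nM enzyme and compound were pre-mixed 15 min, then 2 uM Z-FR-AMC substrate added; reaction progress from fluorescence change between first and third reads (60 s).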
RE007 growth inh: qHTS Assay for Inhibitors of the HIV-1 protein Vpr. S. pombe RE007 Vpr strain, BacTiter-Glo ATP luminescence, 24 h; control for the full effect not named in the record. actives 0.21% (n = 360,000). AID 651644, 2012. Potency, µM (titrated, usually from 92.2 µM), inactives show top-dose activity change, negative = less growth; active = well fitted falling curve with a large enough effect; inconclusive = small, poorly fitted or top-dose-only effect; inactive = no such curve, though single readings can be large or run the other way;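 also: % is scaled to controls: 0 for no effect and ±100 for the full control effect; nearly all actives have a fitted effect of over 50% in size; the assay follows cell death caused by Vpr and the record does not say whether a fall means rescue or toxicity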
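Fission yeast strain RE007, carrying one chromosomally integrated HIV-1 vpr copy, was seeded at OD 0.01 in PMG+AL medium with 23 nL pinned compound. After 24 h at 30 °C and 99% humidity, viability was read by BacTiter-Glo luminescence.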
Cruzain inh Det: qHTS Assay for Promiscuous and Specific Inhibitors of Cruzain (with detergent). Cruzipain (Trypanosoma cruzi), P25779. purified cruzain, Z-FR-AMC fluorescence, 0.01% Triton. Potency, µM, for the others: max response, negative = inhibition, most hits filed as inhibitors. actives 0.43% (n = 200,000);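 also: plate controls were neutral wells for no effect and buffer without enzyme for full effect; nearly all actives have a fitted effect of over 40% in size; top concentration of the series not given in the record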
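Sodium acetate buffer (100 mM, pH 5.5) containing 5 mM DTT and 0.01% Triton X-100 hosted 1.5 nM cruzain and test compound for 15 min at room temperature. Cleavage of 2 uM Z-FR-AMC was then tracked by fluorescence.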
Marburg entry inh: qHTS for inhibitors of binding or entry into cells for Marburg Virus; AID 540276, 2011; Potency, µM (doses to about 37.8 µM), inactives show at the top dose activity change, negative = inhibition, most hits filed as inhibitors; actives 1.8% (n = 300,000); Marburg virus pseudotyped entry inhibition, cell reporter; control for the full effect not named in the record; about a third of the inactives were read at about 46 µM; active = well fitted inhibition curve with a large enough effect; inconclusive = small, poorly fitted or top-dose-only effect, or effect the other way; inactive = flat fitted curve, though single readings scatter; tested in HEK293 cells; about a fifth of its hits are not listed in these tables; also: % is scaled to controls: 0 for no effect and ±100 for the full control effect; luciferase read-out
NS1 function inh: qHTS Assay for Inhibitors of Influenza NS1 Protein Function | S. cerevisiae slowed by influenza A NS1, growth recovery by OD600 | actives 0.4% (n = 270,000) | Potency, µM (series often up to 46.1 µM), for the others: at the highest dose activity, positive = more growth; active means well fitted rising curve with a large enough effect; inconclusive means small, poorly fitted or top-dose-only effect; inactive means no such curve, though single readings can be large or run the other way; also: nearly all actives have a fitted effect of over 50% in size
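Recovery from NS1-induced slow growth read by OD600 in budding yeast switched to galactose assay medium (pH 6.0, -URA) at 1:100 dilution. Compound 23 nl per well; the matching strain lacking NS1 serves as control.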
* = called active by the depositor; u = inconclusive; x = no result given; & = joins results of further samples; [ ] = another dose, or the depositor's remark. Unless noted, calls follow the shape of the dose curve; as a rule, active = well fitted curve in the direction sought with a large enough effect; inconclusive = small, poorly fitted or top-dose-only effect, or another doubt; inactive = no such curve, though single readings can be large; an effect the other way counts as inactive or inconclusive. Potency is read from the fitted curve at half-maximal effect.

SMILES	LASV entry inh	2A StopGo	SARS PLP yeast	Cruzain noTriton	RE007 growth inh	Cruzain inh Det	Marburg entry inh	NS1 function inh
Cc1ccccc1N=C(NOCc1ccccc1)c1nonc1N	-20%	u	-34%	2%	-10%	-6.2%	-16%	-39%
COc1cccc(C2=NN(C(=O)c3cccs3)C(O)(C(F)(F)F)C2)c1 (stereo not given)	-24%	-9%	-4%	x	-21%	x	-12%[46.1 µM]	x
Cc1cc(C)cc(C(=O)Nc2ccc(N3CCN(C(=O)c4ccco4)CC3)cc2)c1	u	u	-4%	x	4%	x	-3%	-3%
Cc1ccc(NC(=O)NCCCN2CCCC2=O)cc1	15%	42%[activator]	0%	-2%	4%	7.6%	19%	1%
CC(=O)Nc1ccc(S(=O)(=O)N2CCSCC2)cc1	4%	x	3%	-6%	6%	4.6%	-1%	12%
Nc1c(-c2cccc(Cl)c2)cnn1-c1cccc(C(F)(F)F)c1	7%	-25%	-36%	-8%	u	-13%	19%	-122%
CC1(c2ccccc2Br)NC(=O)N(CC(=O)Nc2ccc(S(N)(=O)=O)cc2)C1=O (stereo not given)	1%[46.1 µM]	13%	1%	x	11%	x	-14%[46.1 µM]	3%
CCCCn1c(CCNC(=O)c2ccco2)nc2ccccc21	x	u	0%	x	-3%	x	x	-12%
O=C(N1CCCCC1)C1(c2ccccc2)CCCCC1	23%[46.1 µM]	-15%	0%	x	12%	x	10%[46.1 µM]	12%
O=[N+]([O-])c1cc2c(cc1C=Nc1ccccc1)OCO2	-2%	-14%	-18%	-17%	-15%	1.4%	0%	6%
O=C(CN1CCN(S(=O)(=O)c2ccc(Br)cc2)CC1)Nc1ccccc1F	-2%	-29%	-2%	u	-9%	-7.4%	-19%&-19%[46.1 µM]	-39%
CCn1cc(C(=O)OCc2ccccc2)c(=O)c2ccc(C)nc21	-2%	-18%	-2%	-1%	13%	1.5%	-23%	-32%
Oc1nc(-c2ccc(Cl)cc2)n2ccncc12	2%	-10%	1%	x	0%	x	8%	1%
O=[N+]([O-])c1ccc(-c2nc(NCc3cccnc3)c3ccccc3n2)cc1	x	-8%	-1%	x	-13%	x	x	0%
Cc1cc(C(=O)N2CCN(CCc3ccccc3)CC2)no1	4%	3%	8%	-5%	-4%	3.0%	13%	-2%
Cc1ccc(N(CC(=O)NCc2ccc(F)cc2)C(=O)CCC(=O)Nc2ccccn2)cc1C	1.4µM*	-17%	0%	x	-7%	x	u	-6%
CC1CCN(c2nc3ccc(C(=O)NCc4ccc(Cl)cc4)cc3s2)CC1	6%[46.1 µM]	-12%	x	u	x	-3.6%	5%[46.1 µM]	x
CCCCn1c(CCn2nc(C)c(Br)c2C)n[nH]c1=S	-2%	6%	0%	4%	14%	0.8%	4%	2%
CCOC(=O)N1CCN(C(=O)c2ccc3c(=O)n(-c4ccc(OC)cc4)c(=S)[nH]c3c2)CC1	0%	13%	-6%	-6%	-3%	2.6%	4%	3%
CC1Cc2nc(SCC(=O)OCc3ccccc3)n(C)c(=O)c2S1 (stereo not given)	x	-19%	-26%	-16%	-5%	-4.7%	x	-64%
O=C(COC(=O)c1ccc2ncsc2c1)NC(=O)c1ccccc1	16%	8%	0%	x	-8%	x	0%	-1%
COc1ccc(S(=O)(=O)N(C)C)cc1NC(=O)CSc1nnc(-c2cccnc2)o1	20%[46.1 µM]	-4%	-4%	x	13%	x	13%[46.1 µM]	x
CN(Cc1ncc[nH]1)Cc1cn(-c2ccccc2)nc1-c1ccc2c(c1)OCO2	x	-16%	1%	x	-7%	x	x	1%
COC(=O)c1nn(-c2ccc3c(c2)OCO3)cc1O	u	6%	-2%	2%	-21%	-0.6%	-12%	-29%
CCOC(=O)c1cccc(NC(=O)c2ncoc2-c2ccco2)c1	4%[46.1 µM]	0%	x	1%	x	-7.6%	x	x
CCCOc1ccc(C(=O)NCc2cccnc2)cc1	5%	x	-1%	8%	-1%	0.4%	-5%	-10%
COc1ccccc1C(=O)COC(=O)c1ccccc1OCC(=O)Nc1ccc(SC(F)F)cc1	-6%	-13%	4%	-26%	9%	-4.0%	-10%&-10%	24%
COc1ccccc1CNC(=O)CCCn1nc(C)n2ccnc2c1=O	x	-5%	6%	x	-8%	x	x	9%
COc1ccc(CN(C)C(=O)c2cccc(NS(=O)(=O)c3ccccc3)c2)cc1F	u	12%	0%	x	22%	x	23%[46.1 µM]	3%
O=C(NCCc1ccccc1)C(c1ccncc1)N(C(=O)c1csnn1)C1CC1 (stereo not given)	22%	3%	13%	-15%	-8%	-14%	u	15%
O=C(O)c1ccc2[nH]c3c(c2c1)CCCC3	0%[46.1 µM]	2%	-9%	x	23%	x	u	-63%
CCOc1ccc(CNC(=O)C2CCN(S(=O)(=O)c3c(C)noc3/C=C/c3ccc(C)cc3)CC2)cc1OC	4%[46.1 µM]	-8%	x	-6%	x	1.6%	x	x
Cc1ccc(C(=O)COC(=O)CCC(=O)Nc2cccc(Cl)c2)cc1[N+](=O)[O-]	-15%	-9%	1%	4%	-21%	-11%	-6%[46.1 µM]	1%
Cc1ccc(O)c(C(=O)c2cc(C#N)c(=O)n(-c3nccs3)c2)c1	0%	-5%	-2%	x	-6%	x	10%[46.1 µM]	5%
CCOc1ccc(C2CC(=O)Nc3nc(SCc4ccccc4C)[nH]c(=O)c32)cc1OC (stereo not given)	15%[46.1 µM]	2%	x	u	x	-1.8%	16%[46.1 µM]	x
c1ccc(-c2n[nH]c(-c3ccccc3)c2-c2nc3ccccc3[nH]2)cc1	14%	-28%	2%	-2%	-7%	-5.8%	-1%	-8%
CC(C)Cn1cc(NC(=O)N2CCN(c3cccc(C(F)(F)F)c3)CC2)c2ccccc2c1=O	2%[46.1 µM]	u	x	u	x	-8.2%	x	x
Cc1ccc2cccc(Oc3ncnc4scc(-c5ccccc5)c34)c2n1	-16%	0%	2%	1%	7%	-6.5%	u	4%
Cc1csc(NC(=O)c2cc(-c3ccco3)nc3ccccc23)n1	x	-24%	26%	-12%	1%	-28%	x	u
O=C(c1cccs1)N1N=C(c2ccc(O)cc2)CC1c1ccccc1 (stereo not given)	u	0%	11%	3%	1%	-9.6%	22%	14%
C/C(Cl)=C/Cn1c(SCCN2CCOCC2)nc2c1c(=O)[nH]c(=O)n2C	-15%	-9%	-1%	3%	-3%	4.3%	12%	0%
Cn1c2ccc(F)cc2c2ncn(Cc3ccco3)c(=O)c21	-1%	-3%	0%	-6%	2%	-16%	-14%	-23%
CSCCC(NC(=O)/C(=C/c1ccco1)NC(=O)c1ccc(Br)o1)C(=O)O (stereo not given)	x	8%	0%	x	3%	x	x	2%
COc1ccccc1OCCNC(=O)CSC(=S)N1CCCC1	6%	-19%	-1%	x	5%	x	u	x
Cc1nc(Nc2ccc(C(=O)O)cc2)nc(Nc2ccc(C(=O)O)cc2)c1[N+](=O)[O-]	-3%	-26%	0%	x	5%	x	4%	x
Cc1nc(Nc2nc(CSc3nc4ccccc4[nH]3)cc(=O)[nH]2)nc2ccccc12	u	u	2%	-1%	14%	-7.0%	13µM*	14µM*
Cc1cc(Cl)c(OCCCCN2CCOCC2)c(Br)c1	11%	-5%	-6%	10%	-10%	-0.7%	0%	1%
O=C(O)CCC(=O)N1CC=C(c2ccccc2)CC1	-1%	x	2%	-4%	-8%	3.6%	-13%	5%
CC(=O)N1N=C(c2cccs2)CC1c1cc2cc(C)ccc2nc1Cl (stereo not given)	x	-23%	0%	x	-3%	x	x	5%
COc1ccc(NS(=O)(=O)c2cccc(C(=O)NNC(=O)COc3ccccc3)c2)cc1	-4%	-2%	0%	x	-8%	x	u	x

Later entries:
SMILES	LASV entry inh	2A StopGo	SARS PLP yeast	Cruzain noTriton	RE007 growth inh	Cruzain inh Det	Marburg entry inh	NS1 function inh
CCOc1ccccc1N1CCN(C(=O)Nc2ccc(F)c(Cl)c2)CC1	-18%	-5%	-10%	-7%	-5%	6.9%	7%	-33%
O=C1OCCN1CCN(CN1C(=O)CCC1=O)CN1C(=O)CCC1=O	-6%	-21%	-5%	-17%	2%	3.0%	-8%	5%
COc1cccc(/C=C/C(=O)OCC(=O)NCc2ccc3c(c2)OCO3)c1	-12%	-3%	0%	x	-2%	x	16%	x
CC(C)(C)c1ccc(C(=O)N2CCC(c3nc4ccccc4o3)CC2)cc1	-3%[46.1 µM]	9%	x	-1%	x	-10%	20%[46.1 µM]	x
CC(=O)Nc1cccc(NC(=O)c2cc3c(=O)n4cccc(C)c4nc3n2C)c1	18%[46.1 µM]	9%	x	-24%	x	1.5%	x	x
Cc1oc(-c2ccccc2F)nc1CN1CCC(C(=O)NC2CCCc3ccccc32)CC1 (stereo not given)	-2%	u	-4%	1%	-3%	-0.3%	u	-12%
CC(C)c1ccc(NC(=O)c2cc(S(=O)(=O)NCCC3=CCCCC3)ccc2F)cc1	-13%[46.1 µM]	-18%	x	6%	x	0.2%	x	x
Cc1cccc(C)c1CC(=O)N1CCOCC1	u	-4%	-1%	x	5%	x	2%	13%
Cc1ccnc(NC(=O)c2ccc(COc3ccc(Cl)cc3)o2)c1	2%	2%	2%	1%	-23%	-6.1%	2%[46.1 µM]	-49%
CC(C)NS(=O)(=O)c1ccc(OCC(=O)N2CCCC2)c(Cl)c1	7%	34%	0%	-10%	-2%	-0.2%	3%	1%
O=C(Nc1cc([N+](=O)[O-])ccc1N1CCCC1)c1ccco1	-3%	-26%	1%	x	6%	x	22%[46.1 µM]	x
CCOc1ccccc1N(CC(=O)Nc1cccnc1)S(=O)(=O)c1ccc(C)cc1	0%	29%	0%	x	-8%	x	5%[46.1 µM]	-3%
CC(C)(C)C(=O)OCCNc1nc(-c2ccccc2)nc2ccccc12	-13%	u	5%	0%	-15%	-10%	-35%&-35%	-53%
Cc1cc(C(F)F)nn1CC(=O)N1CCSCC1	3%	11%	-26%	-8%	-5%	0.0%	7%	7%
CC(Sc1nnc(CNC(=O)c2ccco2)n1C)C(=O)Nc1nccs1 (stereo not given)	-12%	-14%	0%	x	10%	x	-2%[46.1 µM]	20%
COc1cccc(CNS(=O)(=O)c2ccc(S(=O)(=O)N3CCCC3)cc2)c1	-10%	-12%	0%	x	18%	x	-2%[46.1 µM]	4%
